VACV E9 pol inh – vaccinia E9 polymerase processive synthesis inhibition; in vitro processive DNA synthesis, absorbance read-out; stronger effect = lower value; some inactives read as strong as hits; normalized absorbance, % (no concentration beside the values); 46,000 tested, 0.94% active; AID 493162;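 active means replicate mean up to 90% and picked by the depositor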;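 further: 100% = median of the test wells of a plate; 100 nL library stock went into each well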
* marks the source's active call; other numbers are inactive results.

SMILES	VACV E9 pol inh
COc1ccc(-c2cnnn2-c2ccc(NC(=O)c3ccccc3C(F)(F)F)cc2)cc1OC	101
O=C1Nc2ccccc2/C1=N\N1C(=O)C2C=CC=CC2C1=O (stereo not drawn)	101
O=S1(=O)CC=C(CBr)C1	103
CC1(C)CC(=O)C2=C(C1)OC(=O)CC2c1ccccc1 (stereo not drawn)	82
Cc1ccc(CNCC2CCCO2)cc1 (stereo not drawn)	107
O=C(O)CN1C(=O)CCS(=O)(=O)c2ccccc21	105
Cc1noc(COc2ccccc2OCC(O)CN2CCN(C)CC2)n1 (stereo not drawn)	101
COc1ccc(Br)cc1CNC(=O)C1CCN(C(=O)N(C)C)CC1	102
CC1CCCC(C)N1CCCNc1ccc2nnc(-c3ccccc3)n2n1 (stereo not drawn)	92
CC(=NCCO)c1c(-c2ccccc2)[nH]n(-c2nc3ccccc3s2)c1=O	100
Cn1c(CSc2ccnc3cc(Cl)ccc23)nnc1SCC(=O)c1ccc(Cl)s1	107
O=C(c1n[nH]c2c1CCCC2)n1ccnc1	96
CSc1n[nH]c(NC(=O)Nc2ccccc2)c1S(=O)(=O)c1ccc(Cl)cc1	98
COC(=O)c1ccc(NC(=O)CSc2nc(=O)cc(N)n2-c2ccccc2)cc1	100
Cc1ccc(S(=O)(=O)Nc2ccc(O)c(C(=O)O)c2)c(C)c1	98
CSC1=NC=C(C#N)C2=NC(c3ccc(Cl)cc3)NN12 (stereo not drawn)	94
O=C(/C=C/c1ccc(Cl)cc1)C1(O)CCCCC1	101
COc1ccc(S(N)(=O)=O)cc1OC	99
Cc1ccsc1/C=c1/sc2nc(-c3cccs3)nn2c1=O	103
Cc1cccc(Nc2ccccc2C(=O)O)c1C	98
CCOC(=O)c1ccccc1NC(=O)CSc1ncnc2ccccc12	97
O=C(NCCc1ccc(S(=O)(=O)N2CCCC2)cc1)c1cccc2ccccc12	100
O=C(NC1=NCCS1)C12CC3CC(CC(C3)C1)C2	88
COc1ccc(OCc2nnc3n2N=C(c2ccc(Br)cc2)CS3)cc1	95
O=C1CC(c2ccccc2)c2cc(Cl)ccc2O1 (stereo not drawn)	86
FC(F)(F)c1ccc(N2CCN(Cc3cn[nH]c3-c3ccccc3)CC2)nc1	97
Cc1cc(C=Nc2ccccc2)c(C)n1-c1ccccc1	80
C[N+]1(C/C=C2/COCO2)CCCCC1	99
CC(C)n1c(=S)[nH]c2ccccc21	94
Cc1nc2ccccc2nc1SCC(=O)NC1CCCC(C)C1C (stereo not drawn)	102
CNC(=O)Cn1ncc2c(C)n(Cc3ccccc3)c(C)c2c1=O	101
COC(=O)c1sccc1-n1cc(C#N)c(=O)n(C)c1=O	89
FC(F)(F)COc1nc(N2CCCCC2)nc(N(c2ccccc2)c2ccccc2)n1	100
NC(=O)c1ccccc1NC(=O)c1cccc(Br)c1	103
O=C(O)C1=C(c2ccccc2)OCCS1	102
CC(C)N1C(=O)CCNc2ccccc21	100
S=C(Nc1ccc2[nH]ccc2c1)NC1CC2C=CC1C2 (stereo not drawn)	84
CCCN(CC1CC1)c1cccc(C(=O)O)n1	103
O/N=C(/C(=N/O)c1ccccc1)c1ccccc1	101
CCOC(=O)c1cc(C(=O)OCC)n(C)n1	102
COc1cccc(-n2cc(C(=O)NC3CCCC3)c3ccccc3c2=O)c1	110
O=c1c(-c2ccccn2)coc2cc(O)cc(O)c12	92
CCC(NC(=O)Nc1ccccc1C(=O)OC)(C(F)(F)F)C(F)(F)F	98
CCc1nc2ccccc2c(=O)n1NC(=O)c1c(O)c2ccccc2n(CC)c1=O	103
Cc1cc(NC2=CC(=O)CCC2)n(-c2cc(C(F)(F)F)ccc2Cl)n1	101
CCOC(=O)C1=C(SCc2ccccc2)NC(=O)C(C#N)C12CCCCC2 (stereo not drawn)	98
Nc1c2cnc(N3CCCC3)nc2nc(=O)n1-c1ccc(Cl)cc1	101
CCOC(=O)N1CCN(C(=O)CSc2nc3c(c(=O)n2Cc2ccccc2)SC(C)C3)CC1 (stereo not drawn)	96
Cc1cc2ccccn2c1C(=O)c1cccs1	105
CNC(=O)CCCc1cn(Cc2ccc(C)cc2)c2ccccc12	102

Following part.
SMILES	VACV E9 pol inh
COC(=O)c1cccc(NC(=O)c2cnccn2)c1	98
O=C1C2ON(c3ccccc3)C(/C=C/c3ccccc3)C2C(=O)N1c1ccc(Br)cc1 (stereo not drawn)	100
COCC(=O)n1nc(-c2ccccc2)nc1NCc1ccccc1	105
O=C(c1ccc2nc(N3CCCCC3)sc2c1)N1CCC2(CC1)OCCO2	100
CCOc1ccc(NC(=O)CCNS(=O)(=O)c2ccc(Br)s2)cc1	100
CCCCC(=O)/C=C/C=C\CCCCCCCC(=O)O	100
c1ccc(-c2cc(N3CCOCC3)cs2)cc1	88
O=C(O)c1cnc(-c2ccccc2)nc1-c1ccccc1	86
O=C(NCc1ccc2c(c1)OCO2)c1ccc(N2CCCC2=O)cc1	94
COC(=O)c1c[nH]n2c(=O)c(Cc3ccc(F)cc3Cl)c(C)nc12	99
CCOc1ccc2c(c1)-c1c(ssc1=S)C(C)(C)N2	100
CC(C)(C)c1cc(C(F)(F)F)n2ncnc2n1	100
COc1ccc(-c2csc3ncn(-n4c(C)ccc4C)c(=O)c23)cc1OC	100
Cc1nc2sc(C(c3cccc(F)c3)N3CCOCC3)c(O)n2n1 (stereo not drawn)	101
c1cncc(-c2cccnc2)c1	100
Cc1ccsc1C1C(C#N)=C(N)Oc2nc(-c3ccccc3)[nH]c21 (stereo not drawn)	101
CC(C)C1C(=O)CC(c2ccccc2)NC1c1ccccc1 (stereo not drawn)	97
COC(=O)c1c(C)nn(-c2ccccc2)c1-n1c(C)ccc1C	104
CCN(CC)C(=S)SCc1ccc(C(=O)O)cc1	100
CN(C)C(=O)COc1ncnc2ccccc12	109

Already shown: an excerpt of the list.
SMILES	VACV E9 pol inh
O=C1CC(c2ccccc2)c2cc(Cl)ccc2O1 (stereo not drawn)	86
FC(F)(F)c1ccc(N2CCN(Cc3cn[nH]c3-c3ccccc3)CC2)nc1	97
Cc1cc(C=Nc2ccccc2)c(C)n1-c1ccccc1	80
C[N+]1(C/C=C2/COCO2)CCCCC1	99
CC(C)n1c(=S)[nH]c2ccccc21	94
Cc1nc2ccccc2nc1SCC(=O)NC1CCCC(C)C1C (stereo not drawn)	102
CNC(=O)Cn1ncc2c(C)n(Cc3ccccc3)c(C)c2c1=O	101
COC(=O)c1sccc1-n1cc(C#N)c(=O)n(C)c1=O	89
FC(F)(F)COc1nc(N2CCCCC2)nc(N(c2ccccc2)c2ccccc2)n1	100
NC(=O)c1ccccc1NC(=O)c1cccc(Br)c1	103
O=C(O)C1=C(c2ccccc2)OCCS1	102
CC(C)N1C(=O)CCNc2ccccc21	100
S=C(Nc1ccc2[nH]ccc2c1)NC1CC2C=CC1C2 (stereo not drawn)	84
CCCN(CC1CC1)c1cccc(C(=O)O)n1	103
O/N=C(/C(=N/O)c1ccccc1)c1ccccc1	101
CCOC(=O)c1cc(C(=O)OCC)n(C)n1	102
COc1cccc(-n2cc(C(=O)NC3CCCC3)c3ccccc3c2=O)c1	110
O=c1c(-c2ccccn2)coc2cc(O)cc(O)c12	92
CCC(NC(=O)Nc1ccccc1C(=O)OC)(C(F)(F)F)C(F)(F)F	98
CCc1nc2ccccc2c(=O)n1NC(=O)c1c(O)c2ccccc2n(CC)c1=O	103
Cc1cc(NC2=CC(=O)CCC2)n(-c2cc(C(F)(F)F)ccc2Cl)n1	101
CCOC(=O)C1=C(SCc2ccccc2)NC(=O)C(C#N)C12CCCCC2 (stereo not drawn)	98

(listing goes on)
SMILES	VACV E9 pol inh
CC(NC(=O)Cc1ccc(F)cc1)C(c1cccs1)N1CCOCC1 (stereo not drawn)	98
CSc1nc2c(cnn2-c2ccccc2)c(=O)n1N	102
O=S(=O)(c1ccccc1)N1CCC(Cc2ccccc2)CC1	100
CCOc1ccc(C(=O)N=c2sc3cc(Cl)ccc3n2C)cc1	99
CSc1ccccc1NC(=O)COC(=O)/C=C/c1ccc(F)cc1	96
Nc1nnc(CC(=O)N2CCCCC2)o1	102
O=C1OC(Nc2nccs2)c2ccccc21 (stereo not drawn)	100
COc1ccc(CC(=O)O)cc1OC	100
CCN(CC)C(=S)Nc1cc(C(=O)OC)ccc1C(=O)OC	99
Cc1ccc2nsnc2c1NC(=O)CC12CC3CC(CC(C3)C1)C2	93

Reprinted at random: 2 compounds from above.
SMILES	VACV E9 pol inh
CCOc1ccc(C(=O)N=c2sc3cc(Cl)ccc3n2C)cc1	99
COc1ccc(CC(=O)O)cc1OC	100

(further entries)
SMILES	VACV E9 pol inh
c1ccc(OCCn2c(-c3ccco3)nc3ccccc32)cc1	99
CCOc1ccc(N2C(=O)c3ccccc3C2=O)cc1	98
CC(C)NC(=O)c1cc(Cl)cc(Cl)c1	100
O=C(CN1C(=O)C2C3C=CC(C3)C2C1=O)Nc1cccc(F)c1 (stereo not drawn)	94
COc1cccc(C2=Nc3cccc4cccc(c34)N2)c1	99
CCC(C)SCC(=O)N1CCC(C)CC1 (stereo not drawn)	98
Cc1ccccc1OCC(=O)Nc1ccc(S(=O)(=O)NC(C)(C)C)cc1	116
N#CC1=C(SCC(=O)Nc2ccc(F)cc2)NC(=O)CC1c1ccc(F)cc1 (stereo not drawn)	102
O=C1c2ccccc2C(Nc2ccc(S(=O)(=O)N3CCCCC3)cc2)N1c1ccccn1 (stereo not drawn)	103
O=C(CSc1nccc(-c2cccs2)n1)N1CCOCC1	103
O=C(CSc1ccccn1)Nc1cc(C(=O)O)cc(C(=O)O)c1	98
Nc1ccc(C(=O)Nc2nc3ccccc3s2)cc1	92
Fc1ccccc1-c1n[nH]c(=S)n1CCCN1CCOCC1	115
NC(=S)N1N=C(c2ccccc2)CC1c1ccccc1 (stereo not drawn)	101
O=C(NCc1ccccc1)c1ccc2c(=O)n3c(nc2c1)CCCCC3	106
CCN(c1ccccc1)S(=O)(=O)N1CCCC(C(=O)O)C1 (stereo not drawn)	105
Cc1ccc(S(=O)(=O)N2CCN(Cc3ccccc3)CC2)s1	97
CSc1ncc(Cl)c(C(=O)NCc2ccccc2)n1	102
CCCNC(=O)C1CCN(C(=O)c2ccc(C(C)(C)C)cc2)CC1	98
Cc1cnc(C(=O)NCc2ccc(F)cc2)cn1	101
CCn1cc(C(=O)N2CCCCC2)c2cc(OC)c(OC)cc2c1=O	106
CN(C)c1ccc(C(=O)Nc2nc(-c3ccccc3)cs2)cc1	100
CC1=NN(C(=O)Cc2ccccc2)C(C)(C)C1	100
CN1C(=O)/C(=c2/[nH][nH]c(=O)/c2=C\C=C\c2ccccc2)C(=O)c2ccccc21	78
O=C1CSC2(CCCCC2)N1CCO	88
C=CCNS(=O)(=O)Cc1ccccc1Cl	96
CC(=O)N1CCN(C(=S)c2ccc(-c3ccc(C)cc3)o2)CC1	100
COC(=O)c1ccc(COc2ccccc2Br)cc1	100
COc1ccc2c(Sc3ccccc3)c(C(=O)NC3CCCC3)[nH]c2c1	102
O=C(Cn1nc(-c2ccc(Cl)cc2)c2ccccc2c1=O)Nc1cccc2ccccc12	100
CC(C(O)c1ccccc1)N(C)S(=O)(=O)c1ccc2ccccc2c1 (stereo not drawn)	107
CCOc1ccccc1N1C(=O)C2C(c3ccccc3)C=CC(c3ccccc3)C2C1=O (stereo not drawn)	98
O=C(Cn1ccc2ccccc2c1=O)NCCC(=O)NC1CC1	102
COC(=O)c1c(N2C(=O)C=CC2=O)sc2c1CCC(C(C)(C)C)C2 (stereo not drawn)	107
O=c1c2cnn(-c3ccccc3)c2ncn1C/C=C/c1ccccc1	93
CN(C)c1ccc(C=NCC2COc3ccccc3O2)cc1 (stereo not drawn)	100
Cc1ccc(NC(=O)N2C(=O)C3(OCCO3)c3ccccc32)cc1	112
CC1CC(OCC(O)CN2CCN(Cc3ccc(Cl)cc3)CC2)CC(C)(C)C1 (stereo not drawn)	100
CCCOC(=O)Nc1sc2c(c1C(N)=O)CCC2	105
CCSC1=C(C#N)C(=N)n2c1cc1c2CCCC1	82
N=C(N)N	100
COc1ccc(-c2[nH]ncc2C)cc1F	108
COc1cccc(CNC(=O)c2ccc(Nc3nc4ccccc4n4nnnc34)cc2)c1	104
CCn1c(=NC(=O)c2ccc(S(=O)(=O)N3CCCC3)cc2)sc2c3ccccc3ccc21	103
Cc1[nH]c2ccccc2c(=O)c1CN1CCCCC1	111
c1ccc2[nH]c(SCc3cn4ccccc4n3)nc2c1	98
NC(=O)c1ccccc1NC(=O)C1COc2ccccc2O1 (stereo not drawn)	100
O=C(Nc1cnn(Cc2ccc(F)cc2)c1)c1cnccn1	100
O=C(COC(=O)c1cccs1)NCC1CCCCC1	100
COc1ccc2sc(C(=O)O)c(Br)c2c1	100

Next entries follow:
SMILES	VACV E9 pol inh
CC(C)CN(CC(C)C)C(=O)c1cc2ccccc2oc1=O	100
OCc1ccccc1CNCc1ccccc1	100
COC(=O)C(Cc1c[nH]c2ccccc12)NC(=O)C12CC3CCC1CC(C3)C2 (stereo not drawn)	100
N#CCc1ccc(OCc2cnc(Cl)s2)cc1	112
COc1ccc(NC(=O)N(Cc2ccccc2)C(=O)CC#N)cc1	94
O=C(Nc1nnc(SCc2ccccc2)s1)c1ccccc1Cl	100
Cc1nc2c(c(C)c1CCC(=O)N1CCC(C)CC1)c(=O)n(C)c(=O)n2C	103
Fc1ccccc1OCCSc1nc2ccccc2s1	98
CC(C)Oc1cccc2c1CCN(Cc1ccccc1)C2=O	92
O=S(=O)(CCN1CCN(C(c2ccccc2)c2ccccc2)CC1)c1ccc(Cl)cc1	104
CC1=C(C(=O)OC(C)C)C(C2CC=CCC2)NC(=O)N1 (stereo not drawn)	100
N#Cc1c[nH]c2ccc(NC(=O)/C=C/c3ccc(OC(F)(F)F)cc3)cc12	100
CCN(C(=O)CCc1nc(-c2ccccc2F)no1)c1cc(Cl)ccc1OC	101
N#Cc1cc2c(N)c(C(=O)Nc3ccccc3)sc2nc1N	95
c1ccc(-c2cc3ccccn3c2)cc1	102
O=C(O)CCC(=O)N(Cc1ccccc1)Cc1cn(-c2ccccc2)nc1-c1cccnc1	101
C=CCn1c(CNC(C)=O)nc2ccccc21	92
CCOC(=O)COc1ccc2c(c1)C(=O)CC(C)(C)O2	102
COc1ccc2c(c1)C(C)(CC#N)C(=O)N2C (stereo not drawn)	100
Cc1sc2ncnc(Nc3ccccc3)c2c1C	104
CCOC(=O)C1CCCN(C(=O)C23CC4CC(CC(C4)C2)C3)C1 (stereo not drawn)	98
Cc1ccc(/C=C2\SC(=S)N(C3CCS(=O)(=O)C3)C2=O)cc1 (stereo not drawn)	107
CCn1c2c(c3ccc(OC)cc31)CCCC2=O	90

Not all compounds are listed. The share of hits here may be higher or lower than overall.
